Bm FixLJ act: B. multivorans fixK reporter activation; B. multivorans fixK-promoter GFP reporter, 18 h; stronger effect = higher value; z-score (concentration not given with the values); hit rate 0.3% among 29,000; AID 1918990;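 active = replicate mean overnight rise in green fluorescent reporter signal, 3 or more SD over negative controls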;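 also: score is relative to vehicle wells of the plate; 300 nL library stock went into each well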
Starred values were filed as active, the others as inactive.

Compound	Bm FixLJ act
CCN1CCN(CCCNC(=O)CS(=O)(=O)Cc2nc(-c3ccccc3C)oc2C)CC1	-0.3
COCCn1ccnc1C1CCCN(C(=O)c2cnc3ccccc3c2)C1 (stereo unspecified)	-0.01
COc1ccc(S(=O)(=O)NC(C)Cc2cccnc2)cc1Cl (stereo unspecified)	-1.4
CCC(C)NC(=O)CCC(=O)NNc1nc2ccccc2c2nc(C)nn12 (stereo unspecified)	0.4
COCCn1c(CO)nnc1C1CC(NC(=O)c2ccc(O)cc2)C1 (stereo unspecified)	-1.2
Cc1ccccc1Cn1c(=O)n(CCc2ccccc2)c(=O)c2c(C)c(C)sc21	-1.5
CC[C@H]1OC(=O)[C@H](C)[C@@H](O[C@H]2C[C@@](C)(OC)[C@@H](O)[C@H](C)O2)[C@H](C)[C@@H](O[C@@H]2O[C@H](C)C[C@H](N(C)C)[C@H]2O)[C@](C)(O)C[C@@H](C)C(=O)[C@H](C)[C@@H](O)[C@]1(C)O	-2.7
COc1ccc(-c2nc3c(c(SCC(=O)Nc4ccccc4F)n2)Cc2cc(C)ccc2O3)cc1	-0.83
Cc1nc(CCN2CCN(c3ncccc3C(N)=O)CC2)cs1	-0.2
Clc1ccc(CSC(Cn2ccnc2)c2ccc(Cl)cc2Cl)cc1 (stereo unspecified)	-0.76
Cc1nc(=O)[nH]c(C)c1CCC(=O)N1CCC(Oc2ccccc2)C1 (stereo unspecified)	1.1
COc1ccc(-c2nnn3c2nc(NCCc2ccc(OC)c(OC)c2)c2ccccc23)cc1	-1.7

Reprinted from the part before: 2 compounds; new compounds follow.
Compound	Bm FixLJ act
Cc1nc(=O)[nH]c(C)c1CCC(=O)N1CCC(Oc2ccccc2)C1 (stereo unspecified)	1.1
COc1ccc(-c2nnn3c2nc(NCCc2ccc(OC)c(OC)c2)c2ccccc23)cc1	-1.7
COc1ccc(C2CN(C(=O)CCO)C3C4CCN(CC4)C23)cc1 (stereo unspecified)	-2.2
COc1ccc(C(=O)c2cn(Cc3ccccc3OC)c3cc4c(cc3c2=O)OCO4)cc1	-0.57
Cc1nc(CN2CCC(=O)N(Cc3ccc(F)cc3)C(C(C)C)C2)no1 (stereo unspecified)	2.5
COc1ccc(OC)c(NC(=O)CN(c2ccccc2OC)S(=O)(=O)c2ccc(C)cc2)c1	-0.38
CCCc1cc(=O)[nH]c(Nc2cc(C)ccc2OC)n1	-0.8
O=C(NCc1ccccc1Cl)c1ccc2c(c1)N(Cc1ccccc1)CCS2	0.13
Cc1ccc(C)c(CN2C(=O)c3ccccc3S(=O)(=O)c3ccc(C(=O)N4CCCC4)cc32)c1	-0.88
COc1cccc(-c2cc(C(=O)NCc3ccccc3)no2)c1	0.08
Cn1c(Cn2ccnc2)nnc1C1CCCN(C(=O)c2ccc(C#N)cc2)C1 (stereo unspecified)	0.55
COc1ccccc1OCCn1cc(C(=O)c2cccs2)c2ccccc21	2.8
C[C@]12C[C@H](O)[C@H]3[C@@H](CCC4=CC(=O)CC[C@@]43C)[C@@H]1CC[C@@H]2C(=O)CO	0.42
COc1cccc(COC(=O)c2ccc(-c3nnn(Cc4cccc(OC)c4)n3)cc2)c1	-0.85

Continuation:
Compound	Bm FixLJ act
N#Cc1cccnc1N1CCC(NC(=O)CCc2nc3ccccc3[nH]2)CC1	-1.5
O=C(CCc1nc(-c2ccco2)no1)N1CCCCC1CCn1ccnc1 (stereo unspecified)	1.2
COCCCNC(=O)c1ccc2c(c1)N=C(C)c1c(C)ccc(C)c1S2	0.17
CCCCCOc1ccc(Cn2c(=O)oc3ccccc32)cc1	-0.55
Cc1ccc(S(=O)(=O)c2nc(-c3cccs3)oc2SC(C)C)cc1	-0.74
O=P(O)(O)C(O)(Cn1ccnc1)P(=O)(O)O	-0.94
CCC(Sc1nc2ccncc2[nH]1)C(=O)Nc1cc(Cl)ccc1C (stereo unspecified)	0.26
COc1ccccc1CNC(=O)Cc1c(C)c2c(cc(C)c3c(C)c(C)oc32)oc1=O	-0.51
CSc1ccc2c(C)cc(NCCC3CCCCN3S(C)(=O)=O)nc2c1 (stereo unspecified)	1.6
COc1ccc(CNC(=O)CSc2nc3ccsc3c(=O)n2Cc2ccccc2Cl)cc1	-1.3
Cc1ccccc1Nc1nnc(-c2ccc(C)c(S(=O)(=O)N3CCCCC3)c2)c2ccccc12	2.2
CCCCS(=O)(=O)N1CCC(=O)N(CC2CC2)C(C(C)C)C1 (stereo unspecified)	0.55

Continued.
Compound	Bm FixLJ act
CC(NC(=O)CCc1nc2ccccc2[nH]1)c1nncn1C1CCCC1 (stereo unspecified)	-1.6
CC(C)SCCNC(=O)N(Cc1ccc(O)cc1)Cc1cccnc1	0.18
Cc1cc(C)c(OCC(=O)N(Cc2ccc(N(C)C)cc2)Cc2ccco2)c(C)c1	-1.3
CN(C)C(=O)c1cccc(CNc2nccc(CCC(F)(F)F)n2)c1	-1.6
Cc1ccc(Nc2nc(N)nc(CSc3nc4ccccc4s3)n2)cc1	-2.2
O=C(c1ccc2c(c1)N(Cc1ccccc1)C(=O)c1ccccc1S2(=O)=O)N1CCc2ccccc21	-0.09
Cc1cc(F)ccc1-n1nnc(C(N)=O)c1C	-0.51
Cc1nc(CN(C)CCC(=O)Nc2nnc(C3CC3)s2)no1	0.79
COc1cc(O)ccc1-c1nc2cc(C)ccn2c1Nc1ccccc1C	-0.39
COC(=O)NC(C)C(=O)N1CCCN(C(=O)CCn2cccn2)CC1 (stereo unspecified)	-0.39
Cc1ccc(N2CCN(C(=O)c3ccc4c(Cl)c5c(nc4c3)CCCC5)CC2)c(C)c1	0.13
Cc1cnc(CN(C)C(=O)NC23CC4CC(CC(C4)C2)C3)[nH]1	0.86

Further entries follow:
Compound	Bm FixLJ act
COc1cc(NC(=O)CSc2nc(-c3cccs3)cc(C(F)(F)F)n2)cc(OC)c1OC	-0.93
Cc1ccc(C(C)C)c(OCCCn2c(=O)oc3ccccc32)c1	2.1
COc1cc(-c2cc(-c3ccn(C)c3)nc(N)c2C#N)c(Cl)cc1O	-0.29
Cc1ccc2nc(Cl)c3cc(C(=O)N4CCCCC4C)sc3c2c1 (stereo unspecified)	-1.9
COc1ccc(-c2c3c(=O)n(C)c(=O)n(C)c3c3c(C)nc4ccccc4n23)cc1	-1.5
COc1ccc(NC(=O)c2oc3ccccc3c2NC(=O)c2cc3ccccc3o2)cc1	1.4
CN(CC(=O)NC1COCC1Cc1ccncc1)Cc1ccccc1 (stereo unspecified)	-0.73
CCOc1ccccc1NC(=O)CSc1nc2cc(OC)c(OC)cc2c2nc(CCn3c(C)nc4ccccc43)nn12	0.06
CCOc1ccccc1NC(=O)Cn1c(=O)n(Cc2ccc(C(=O)NCCCOC)cc2)c(=O)c2ccccc21	-2.8
O=C(Nc1ccc(F)cc1)N1CCN(c2ccccc2F)CC1	1.8
CCN(CCCNC(=O)c1cc2cc3ccc(OC)cc3nc2s1)c1ccccc1	-0.52
O=C1CN(C(=O)C2CCCCC2)C(c2ccccc2)c2cc(F)ccc2N1 (stereo unspecified)	-1.7

Next part.
Compound	Bm FixLJ act
COc1ccc(C2=C(N3CCN(c4cccc(C)c4C)CC3)c3ccccc3C2=O)cc1	1.7
COc1ccc(N(C(=O)c2cc(OC)c(OC)c(OC)c2)S(=O)(=O)c2ccc(C)cc2)cc1	1.6
CCOC(=O)N1CCC(NC(=O)c2ccc3c(c2)N(Cc2cc(C)ccc2C)C(=O)c2ccccc2S3=O)CC1 (stereo unspecified)	0.04
CCOc1ccc(NC(=O)CC2C(=O)N(c3ccc(C)cc3)C(=O)N2C2CCCCC2)cc1 (stereo unspecified)	-3.4
COCc1cccc(C(=O)NC2CCN(Cc3csc(C)n3)CC2O)c1 (stereo unspecified)	-4.1
COc1ccc(OC)c(NC(=O)c2cc3cccc(OC)c3oc2=O)c1	-2
Cc1cccn2c(=O)c3cc(C(=O)NCc4cccnc4)c(=N)n(CCCO)c3nc12	-2.1
Cc1cc(CC(=O)O)n(C)c1C(=O)c1ccc(Cl)cc1	-0.6
COc1ccc(-c2oc3ncn4nc(-c5ccccc5Br)nc4c3c2-c2ccc(OC)cc2)cc1	-1.7
O=C(NCc1cccc(Cl)c1)c1oc(=O)c2ccccc2c1-c1ccccc1	0.35
Cc1cc(C)c(NC(=O)Cn2c(=O)n(CCC(=O)NCc3ccccc3Cl)c(=O)c3sccc32)c(C)c1	-2.2
COc1cc2c(c(OC)c1)C(c1cc(OC)c(OC)c(OC)c1)CC(=O)N2 (stereo unspecified)	-0.1

(further entries)
Compound	Bm FixLJ act
Cc1nnc(NCc2ccccc2)c2c1nnn2Cc1ccccc1Cl	-2.6
COc1ccccc1OCCn1c(NC(=O)c2ccc(Cl)cc2)nc2ccccc21	-3.9
CC(Cc1cccnc1)Nc1nc(-c2ccncc2)nc2c1cnn2C (stereo unspecified)	0.36
Cc1cc(Nc2ccc(C(=O)O)c(O)c2)n2ncnc2n1	-1.1
O=C(O)CSc1c2c(nc3cc(C(=O)Nc4ccc(F)c(Cl)c4)ccc13)CCC2	-1.1
COc1ccc(CCNC(=O)CSc2cn(CCNC(=O)c3c(F)cccc3F)c3ccccc23)cc1OC	-0.03
COC(=O)C(C)Sc1nc2c(cnn2-c2ccc(F)cc2)c(=O)[nH]1 (stereo unspecified)	0.76
Cc1ccc(NC(=O)c2cc3nc(-c4ccc5c(c4)OCO5)cc(C(F)(F)F)n3n2)cc1Cl	0.62
CCN(c1ccccc1)S(=O)(=O)c1ccc(NC(=O)c2cc(=O)c3ccc(C)c(C)c3o2)cc1	-1.2
CC1CC(OC(=O)c2ccccc2O)CC(C)(C)C1 (stereo unspecified)	0.03
Cc1cc(NC(=O)c2cccs2)cc(-c2nc3cc(Cl)ccc3o2)c1O	-1.5
COc1ccc(OC)c(NC(=O)Cn2ccc3ccccc3c2=O)c1	0.17

The list goes on:
Compound	Bm FixLJ act
O=C(Nc1ccc(-c2ccccc2OCCn2ccnc2)cc1)NC1CC1	0.17
Cc1cc(C)c2c(=O)cc(C(=O)Nc3ccccc3C(F)(F)F)oc2c1	-2.1
Cc1c(Cl)cccc1Nc1nc(N)nc(CSc2nc3ccccc3s2)n1	-1.2
O=C(CC1C(=O)N(c2ccccc2)C(=O)N1CCC1=CCCCC1)Nc1ccc(F)cc1 (stereo unspecified)	1.1
COc1ccc(CNC(=O)CCS(=O)(=O)c2cc(Br)cc3c2N(C(C)=O)C(C)C3)cc1 (stereo unspecified)	0.11
O=C(Nc1ccc(OCc2cc(=O)n3c4c(sc3n2)CCCC4)cc1)c1ccccc1	-2.1
COc1ccc(OC)c(C2c3c(-c4ccc(Br)cc4)n[nH]c3C(=O)N2c2ccc(Cl)cc2)c1 (stereo unspecified)	-1
CC(=O)NCCc1nc2ccccc2n1CCCCOc1ccc(Cl)cc1	-1.7
CCCc1ccc(C2Sc3ccccc3NC3=C2C(=O)c2ccccc23)cc1 (stereo unspecified)	1.7
COc1ccc(/C=C/c2nc(-c3ccccc3O)n(-c3ccccc3)n2)cc1OC	0.99
CCOC(=O)c1ccc2nc(C)cc(Nc3cccc(C(=O)O)c3)c2c1	0
COc1ccc(C(=O)n2nc(-c3cccnc3)nc2NCc2ccccc2)cc1OC	-1.5

(further entries)
Compound	Bm FixLJ act
CN1CCCC(CN(CCc2ccccc2)C(=O)c2cc(C#N)cn2C)C1 (stereo unspecified)	-0.67
COc1ccc(CC(=O)O)cc1S(=O)(=O)N1CCCN(CC(C)C)CC1	0.18
CCCn1cnnc1CNC(=O)CSCc1ccccc1Cl	-0.37
COCCCN(Cc1cccc(OC)c1)C(=O)c1nc(N)nc2c1CCCC2	0.02
CCOc1ccccc1NS(=O)(=O)c1ccc2c(c1)oc(=O)n2C	0.05
O=C1CCC2(CCCN(C(=O)c3ccc(O)cc3)C2)CN1CC1CC1 (stereo unspecified)	0.78
CCOC(=O)c1ccc(NC(=O)CC2C(=O)N(c3cccc(OC)c3)C(=O)N2Cc2ccc(OC)cc2)cc1 (stereo unspecified)	-1.7
CCOc1ccccc1CNCc1c(C(=O)O)c(C)n(Cc2ccc(Cl)cc2)c1C	0.02
COCCCNC(=O)CCCn1c(SCC(=O)c2ccc(Br)cc2)nc2c(sc3ccccc32)c1=O	-1.5
COc1cccc(-c2ccc3c(N)c(C(=O)NCc4ccc(Cl)cc4)sc3n2)c1	0.15
Cc1cc(C)cc(NS(=O)(=O)c2ccc3[nH]cc(C(=O)NC4CCCCC4)c(=O)c3c2)c1	0.18
OC[C@H]1O[C@H](O[C@]2(CCl)O[C@H](CCl)[C@@H](O)[C@@H]2O)[C@H](O)[C@@H](O)[C@H]1Cl	-1.4

Grouped by structure, the compounds so far with a COOH group.
Compound	Bm FixLJ act
Cc1cc(CC(=O)O)n(C)c1C(=O)c1ccc(Cl)cc1	-0.6
Cc1cc(Nc2ccc(C(=O)O)c(O)c2)n2ncnc2n1	-1.1
O=C(O)CSc1c2c(nc3cc(C(=O)Nc4ccc(F)c(Cl)c4)ccc13)CCC2	-1.1
CCOC(=O)c1ccc2nc(C)cc(Nc3cccc(C(=O)O)c3)c2c1	0
COc1ccc(CC(=O)O)cc1S(=O)(=O)N1CCCN(CC(C)C)CC1	0.18
CCOc1ccccc1CNCc1c(C(=O)O)c(C)n(Cc2ccc(Cl)cc2)c1C	0.02

Further results follow:
Compound	Bm FixLJ act
CCNC(=O)c1c(NC(=O)c2cc(=O)c3ccc(C)c(C)c3o2)sc2c1CCCC2	-1.8
CCCCn1cc(S(=O)(=O)c2ccc(OCC)cc2)c(=O)c2cc(OC)c(OC)cc21	-1.9
COc1ccc(NC(=O)c2c(C)oc3ccc(O)c(CN4CCN(Cc5ccccc5)CC4)c23)cc1	-0.92
Cc1nn(CC(=O)NCC(C)c2ccccc2)c(=O)c2cc3ccccc3n12 (stereo unspecified)	-2.2
Cc1ccc(O)c(Nc2nc3ccccc3c3nncn23)c1	0.08
COc1ccccc1NC(=O)C1=C(C)Nc2nc3ccccc3n2C1c1cccc(OC)c1OC (stereo unspecified)	-0.44

Bioassay records (PubChem)

This is a subset; the hit share may differ from the screen's.
